# Bioassay records deposited in PubChem BioAssay by several laboratories.
# CSC inhib: cancer stem cell viability inhibitors, primary screen, luminescence; inhibition, % at 7.5 µM; cancer stem cell-like cells viability; AID 2717, 2010; 300,000 tested, 1.1% active;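 active means mean at 75% or more and at least half the replicates too; inconclusive means mean and replicates disagree; tested in HMLE shEcad cells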;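 further: 0% = median of negative and 100% = median of positive control wells; the first replicate is given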
# Rce1 inhib: yeast Rce1p protease inhibitors, primary screen, biochemical, fluorescence, cell-free homogeneous. calls only. yeast membranes, quenched prenylated peptide cleavage fluorescence. 290,000 tested, 0.27% active. AID 2563, 2010;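 active means fall in fluorescence gain of 50% or more versus controls, with final raw signal at or below 3038400; inconclusive means same 50% fall but final raw signal above 3038400; inactive means fall in fluorescence gain under 50%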;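 further: plate controls were neutral control wells for no effect and wells lacking membranes for full effect; tested at 10 µM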
# Yeast UUG start: modulators of yeast start codon fidelity, primary screen, whole organism, S. cerevisiae, single point, plate reader; S. cerevisiae UUG-firefly luciferase reporter, luminescence/redox ratio; activity score, % at 18.7 µM; 350,000 tested, 0.13% active;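 active means replicate mean at a twofold rise or more, about +100% in these data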;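 further: firefly luciferase made from a UUG start codon reports start codon fidelity; reporter light over untreated wells divided by growth signal over untreated wells; some hits fall short of that in this replicate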
# Env fusion inh: inhibitors of HIV-1 Env-driven cell-cell fusion, primary screen, HeLa-JRFL effector, CEM21 target cells, luciferase | 360,000 tested, 1.1% active | inhibition, % at 12.3 µM | AID 651610, 2012;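 active means mean replicate inhibition score of at least 50 and every replicate individually at or above 50; inconclusive means only one of the two criteria met; inactive means mean below 50 and not all replicates reaching 50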;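 further: 0% = plate neutral controls and 100% = maraviroc near 300 nM; one replicate is shown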
# eIF4H FP inh: human eIF4H binding inhibitors, primary screen, translation initiation inhibitor project, biochemical, uHTS, fluorescence polarization; Eukaryotic translation initiation factor 4H (Homo sapiens), Q15056; eIF4H fluorescence polarization binding assay; inhibition, % at 35 µM; 290,000 tested, 0.94% active; AID 2012, 2009;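 active means 50% or more with normal probe brightness, or confirmed in later tests; inconclusive means above 50% with abnormal brightness, or retests that disagree; inactive means below 50% or failed in later tests; about a fifth of its hits are not listed in these tables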;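 further: calls also rest on retests at 20 µM and on dose response follow-up; 0% = protein and probe with vehicle and 100% = probe without protein; strong numbers were not always called active; many hits fall short of the cut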
# MT1-MMP act inh: blockers of MT1-MMP proenzyme processing, primary screen, HT1080 RFP-PRO-GFP cells, GFP/RFP fluorescence. Matrix metalloproteinase-14 (Homo sapiens), P50281. GFP/RFP ratio fluorescence, overnight; percent of plate control window, DMSO zero. GFP/RFP ratio change, % at 20 µM. 360,000 tested, 0.061% active. AID 651647, 2012;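 active means GFP/RFP ratio change of at least 30% with cell ATP level not reduced by more than half and red fluorescence within 50% of control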; further: strong numbers were not always called active
#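 Material: RFP-PRO-GFP reporter HT1080 cells. Dosing: single-point 20 µM compound, 1% DMSO. Controls: DMSO and RFP-L50D-GFP cell wells. Timing: cells overnight before dosing, compound overnight, 37 °C, 5% CO2. Measure: GFP/RFP fluorescence ratio.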
# PABP FP inh: PABP poly(A) RNA binding inhibitors, primary screen, biochemical, fluorescence polarization, uHTS. inhibition, % at 35 µM. 290,000 tested, 1% active. AID 2014, 2009;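 active means 50% or more with normal probe brightness, or confirmed in later tests; inconclusive means above 50% with abnormal brightness, or retests that disagree; inactive means below 50% or failed in later tests; about a fifth of its hits are not listed in these tables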;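 further: calls also rest on retests at 20 µM and on dose response follow-up; controls were probe without protein and protein plus probe with vehicle; some compounds called inactive have numbers as strong as hits; many hits fall short of the cut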
# Target sequence (P11940 whole entry, looked up): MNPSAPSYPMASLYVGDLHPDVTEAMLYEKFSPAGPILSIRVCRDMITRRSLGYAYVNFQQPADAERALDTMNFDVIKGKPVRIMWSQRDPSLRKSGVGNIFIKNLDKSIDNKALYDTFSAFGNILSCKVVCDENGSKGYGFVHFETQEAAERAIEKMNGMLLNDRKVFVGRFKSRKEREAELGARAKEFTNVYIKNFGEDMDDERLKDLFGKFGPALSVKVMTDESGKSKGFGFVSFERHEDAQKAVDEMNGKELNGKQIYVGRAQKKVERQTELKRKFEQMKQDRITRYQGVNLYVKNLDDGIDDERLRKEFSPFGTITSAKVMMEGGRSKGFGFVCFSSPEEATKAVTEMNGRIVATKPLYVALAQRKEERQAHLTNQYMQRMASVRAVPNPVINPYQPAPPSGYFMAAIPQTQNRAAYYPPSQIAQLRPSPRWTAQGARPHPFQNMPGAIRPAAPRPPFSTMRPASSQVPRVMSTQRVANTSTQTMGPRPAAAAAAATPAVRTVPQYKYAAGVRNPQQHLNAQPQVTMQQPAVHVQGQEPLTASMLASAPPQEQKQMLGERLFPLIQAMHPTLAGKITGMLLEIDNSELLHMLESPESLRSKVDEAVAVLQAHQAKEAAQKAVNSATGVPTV
# eIF4H FP inh retest: recorded beside eIF4H FP inh, whose call it bears; inhibition, %; compound at 20 µM; confirmation average;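 mean of two retest wells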
# PABP FP inh retest: also measured in PABP FP inh; calls as there; inhibition, %; compound at 20 µM; confirmation repeats;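 mean of two retest wells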
# MT1-MMP act inh RFP: also measured in MT1-MMP act inh; calls as there; RFP signal change, %; measured here: RFP expression control read;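 0 = vehicle wells; hits needed this value within 50% of zero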
# An asterisk follows results filed as active; i = inactive; ? = inconclusive; · = no result given.
# The opening 2 records, ahead of the listing:
SMILES,CSC inhib,Rce1 inhib,Yeast UUG start,Env fusion inh,eIF4H FP inh,MT1-MMP act inh,MT1-MMP act inh RFP,PABP FP inh,others
CCCCC(O)(c1ccc(F)cc1)C(CN1CCOCC1)c1ccc(Cl)cc1 (stereo unspecified),21,i,4,36,-2,-11,-9,10,
Cn1c(=O)[nH]c(=O)c2c1nc(Sc1ncccn1)n2CCCc1ccccc1,11,i,13,i,-7,-2,0,0,

# The listing, from the first entry:
SMILES,CSC inhib,Rce1 inhib,Yeast UUG start,Env fusion inh,eIF4H FP inh,MT1-MMP act inh,MT1-MMP act inh RFP,PABP FP inh,others
CCCCC(O)(c1ccc(F)cc1)C(CN1CCOCC1)c1ccc(Cl)cc1 (stereo unspecified),21,i,4,36,-2,-11,-9,10,
Cn1c(=O)[nH]c(=O)c2c1nc(Sc1ncccn1)n2CCCc1ccccc1,11,i,13,i,-7,-2,0,0,
N#Cc1cnn(-c2nc3sc4c(c3c(=O)[nH]2)CCCC4)c1N,39,i,·,·,6,11,6,-10,
Cc1ccc(C)c2[nH]c(=O)c(CN(Cc3ccco3)S(=O)(=O)c3ccc4c(c3)OCCO4)cc12,15,i,18,11,7,1,-7,-8,
O=C(C1=NN[C@@H]2C(=O)N(c3cccc(F)c3)C(=O)[C@H]12)c1cnccn1,-15,i,6,4,-9,-4,1,8,
CC1(c2ccccc2)NC(=O)N(CC(=O)NNC(=O)c2ccccc2)C1=O (stereo unspecified),-6,i,-21,5,-12,-3,1,-7,
COc1ccc(CCNC(=O)COc2cc(C)cc3oc(=O)cc(C)c23)cc1,-8,i,-18,2,-10,-2,1,-5,
CC1(C)Cc2c(cnn2-c2ccccc2)C(NC(=O)CCN2CCCCO2)C1 (stereo unspecified),12,i,-8,-5,-3,-1,6,11,
O=C(O)c1ccc(-c2ccccn2)s1,-12,·,·,-5,1,2,12,-18,
COc1ccc(C(=O)NC(C)c2nnc(SCc3ccc(Cl)c(Cl)c3)n2C)cc1 (stereo unspecified),-6,i,-18,-2,12,-4,-6,40,
O=C(O)CNc1nc(-c2ccccc2)nc2c1oc1ccccc12,-1,i,·,-3,-1,6,1,-11,
COC(=O)C1=C(C(=O)OC)[C@@H]2Nc3ccccc3[C@@]23C[C@@H](C(=O)OC)N(C(=O)CC(C)C)C3=N1,-4,i,-4,-21,·,-1,-2,·,
CC1(C)CC(=O)c2sc(NS(=O)(=O)c3ccc([N+](=O)[O-])cc3)nc2C1,-10,i,-6,i,-2,2,2,-5,
COc1ccc(C)cc1NC(=O)C1CCN(C(=O)C2CC(=O)N(c3ccc(C)cc3)C2)CC1 (stereo unspecified),·,i,0,-5,-9,-2,-1,-4,
N=C1/C(=C/c2cccn2Cc2ccc(F)cc2)C(=O)N=C2SC=CN12,-3,i,-29,-4,13,-4,-3,-16,
CC(C)CN1CCNC(=O)C1CC(=O)NCc1cnn(-c2cccc(F)c2)c1 (stereo unspecified),0,i,·,8,2,-1,0,1,
O=C(Nc1ccccc1C(F)(F)F)c1cnccn1,-7,i,-12,-16,-15,2,5,-10,
O=C(NCc1nnc(SCC(=O)N2CCCc3ccccc32)o1)c1ccco1,-8,i,·,7,0,-1,3,9,
CC1CCCC(C)N1C(=O)c1cc(-c2cccs2)on1 (stereo unspecified),3,i,-16,·,-13,0,0,-8,
COc1ccc(OC)c(S(=O)(=O)NC2CC(=O)N(c3ccc(C)c(C)c3)C2)c1 (stereo unspecified),0,i,15,-6,·,1,0,·,
Cc1ccc(NC2=NC3(CCCCC3)N=C(N)N2)c(C)c1,-4,·,-6,31,4,2,-2,0,
O=C(C1CCC1)N1CCc2cc(S(=O)(=O)NC3CCCC3)ccc21,4,i,-34,15,1,0,-9,-6,
Cc1nc(C)c(-c2ccccc2)c(=O)[nH]1,-12,i,-13,·,-6,2,3,1,
COc1cc(C2C(C(=O)OC(C)C)=C(C)Nc3[nH]c(=O)[nH]c(=O)c32)ccc1O (stereo unspecified),·,i,·,·,0,-1,2,0,
COc1cccc(C(=O)N2CCN(c3ccc(N4CCOCC4)nn3)CC2)c1,-3,i,·,5,·,12,-1,·,
C[C@@H]1COC(=O)[C@@H](Cc2ccc(F)cc2)C/C=C\C[C@@H](CC(=O)N[C@H](CO)Cc2ccccc2)C(=O)N1,·,·,7,2,·,0,-2,·,
COc1ccc(C(C)(O)c2nc(-c3cccc(C(=O)O)c3)cs2)cc1 (stereo unspecified),·,·,-6,6,·,-3,-1,·,
CC1CCc2c(sc(NC(=O)C3CCCO3)c2C#N)C1 (stereo unspecified),-14,i,·,-33,-1,-2,-4,-9,
O=C(CN1C(=O)C2CC=CCC2C1=O)Nc1ccc(Br)cc1 (stereo unspecified),-9,i,15,-7,-3,-1,0,-11,
O=C1NC(=O)C2C3OC(C(Br)C3Br)C12 (stereo unspecified),·,·,-15,13,·,-1,-2,·,
Cc1ccc(N2CC(C)Cn3c2nc2c3c(=O)[nH]c(=O)n2C)cc1C (stereo unspecified),-16,i,-15,21,-9,15,3,5,
C/C(N)=C(/C#N)C(=O)COC(=O)c1cc(-c2ccccc2)nc2ccc(Br)cc12,-1,i,·,·,0,·,·,-1,
COCCCNC(=O)Cn1cnc2sc(C)c(S(=O)(=O)N3CC(C)CC(C)C3)c2c1=O (stereo unspecified),-9,i,1,·,1,4,-2,-4,
Cc1ccccc1NC(=S)N/N=C/c1ccc(O)cc1O,70,i,-29,-59,10,6,2,-4,
O=C(Nc1cc(Cl)ccc1O)C1CC(c2ccccc2O)=NO1 (stereo unspecified),15,i,-9,8,-5,-2,4,-14,
Cc1cc(NS(=O)(=O)c2ccc(NC(=S)NC(=O)c3ccncc3)cc2)no1,-18,i,·,2,-13,-1,4,1,
Clc1nc(CN2CCOCC2)nc2sc3c(c12)CCC3,-16,i,·,-2,-2,0,4,7,
CCCCCn1c(CNC(C)=O)nc2ccccc21,-11,i,-10,-7,1,1,0,-8,
CC(O)(c1ccc(F)c(F)c1)c1nc(-c2ccc3ccccc3c2)cs1 (stereo unspecified),·,·,3,15,·,0,-6,·,
CCN(CCCn1c(SCC#N)nc2ccccc2c1=O)c1ccccc1,13,i,7,62*,-9,-7,-17,2,
Cc1sc2ncnc(N3CCC(C(=O)Nc4ccc(Cl)cc4Cl)CC3)c2c1C,-3,i,·,20,·,4,-2,·,
COc1ccc(NC(=S)NC2CCCC2)c(OC)c1,-13,i,-16,-25,-6,0,1,-8,
CC(=O)/C(=N\Nc1cccc(Cl)c1)Sc1cccc2cccnc12,-6,i,-14,·,-8,-2,2,?,
CCOc1ccc(OCC)c(NC(=O)CCS(=O)(=O)c2ccc(C)cc2)c1,·,i,-13,10,2,3,6,-1,
C/C(=N\NC(=O)c1cccc([N+](=O)[O-])c1)c1ccco1,-5,i,-19,-1,?,-1,0,?,
CCOC(=O)c1c(NC(=O)c2cccs2)sc(C(=O)N(C)C)c1C,-3,i,-1,-27,-10,-4,1,3,
COc1cccc(N2CC34C=CC(O3)C(C(=O)O)C4C2=O)c1 (stereo unspecified),-6,i,-15,-170,74,5,5,19,eIF4H FP inh retest=5;PABP FP inh retest=7
COc1ccc(N(CC(=O)NC2CCCC2)C(=O)Cn2nnc(-c3ccc(OC)c(OC)c3)n2)c(OC)c1,-8,i,-4,-7,-14,-5,-3,3,
COc1ccc(NC(C)C(=O)Nc2cc(C(F)(F)F)ccc2N2CCOCC2)c(OC)c1 (stereo unspecified),11,i,-14,15,0,-2,-2,-5,
C/C(=N\NC(=O)C(=O)Nc1ccc(C)c(Cl)c1)c1ccncc1,-11,i,·,-29,-2,0,-4,-6,
O=C(c1cccs1)N1C[C@@H](O)[C@H](n2cc(-c3ccc(F)cc3)nn2)C[C@@H]1c1ccc(Cl)cc1,·,·,-7,-100,·,4,3,·,
COc1ccc([C@H]2CC(=O)C=C(c3ccc4c(c3)OCO4)C2)cc1,-1,·,-9,-33,·,2,0,·,
N#Cc1ccc(Oc2nc(C(N)=O)cc(-c3ccccc3)n2)cc1,13,i,-12,-95,-14,-1,-2,7,
Cc1ccc(NC(=O)C(C)OC(=O)COc2cccc(C(F)(F)F)c2)cc1 (stereo unspecified),·,·,3,9,·,3,5,·,
CSc1ccccc1C(=O)NC(C)c1ccc(-n2ccnc2)cc1 (stereo unspecified),-6,i,-5,-8,-6,2,2,-11,
CC(=O)Nc1sc(C)c(C)c1C(=O)OCC(=O)N(C)C1CCS(=O)(=O)C1 (stereo unspecified),9,i,·,17,-4,1,3,-3,
CCN(CCS(=O)(=O)c1ccc(Cl)cc1)C(=O)Nc1ccc(Cl)cc1,-11,i,·,1,-5,0,-2,2,
CCOc1ccc(OCCC(=O)OCC(=O)c2c(N)n(C)c(=O)n(C)c2=O)cc1,·,i,-7,6,·,6,2,·,
Cc1nnc(SCC(=O)N2CCCC(N3CCN(c4ccc(F)cc4)CC3)C2)o1 (stereo unspecified),-4,i,-14,11,-5,0,3,-12,
Cc1ccc(-c2ccc(C(=O)O)o2)cc1Cl,-7,i,-9,-5,3,-1,0,12,
# (list continues)
SMILES,CSC inhib,Rce1 inhib,Yeast UUG start,Env fusion inh,eIF4H FP inh,MT1-MMP act inh,MT1-MMP act inh RFP,PABP FP inh,others
Cc1cc(C)nc(SCCn2c(N3CCOCC3)nc3c2c(=O)[nH]c(=O)n3C)n1,-1,i,·,8,2,1,9,-8,
N#Cc1ccc(S(=O)(=O)NC2CCN(Cc3ccccc3)CC2)cc1,-10,i,·,-5,0,2,4,12,
Cc1c(CC(=O)NCC(=O)O)c(=O)oc2cc3occ(-c4ccccc4)c3cc12,2,i,-8,-23,1,3,8,16,
CCOC(=O)CCCNC(=O)COC(=O)c1cc(Br)c(Br)s1,-12,i,·,6,0,-1,1,2,
COc1ccc(CN2CC(C(=O)NCCCN3CCN(Cc4ccccc4)CC3)CC2=O)cc1 (stereo unspecified),18,i,·,·,-2,3,4,-11,
CCN(CC)C1CCN(C(=O)c2cc(COc3ccc(-n4cncn4)cc3)on2)C1 (stereo unspecified),-1,i,-21,-54,2,4,1,17,
NNc1nc(N)c2c(n1)-c1ccccc1CC21CCCC1,-1,i,·,1,-3,-3,-2,-7,
CC(Sc1nc(C(C)(C)C)cc(-c2ccccc2)c1C#N)C(=O)Nc1ccccc1 (stereo unspecified),21,i,-36,-5,-6,-6,-7,-8,
O=c1c2ccccc2nc(-c2ccccc2)n1CCN1CCOCC1,-8,i,-11,-20,-3,0,3,-12,
Cc1nnc(SC(C)C(=O)Nc2ccc(Cl)cc2Cl)[nH]c1=O (stereo unspecified),-5,·,-8,·,·,0,1,·,
O=c1sc2ccccc2n1COc1ccc(Cl)cc1,·,i,-1,·,3,-2,-11,-10,
COc1ccc(Br)c(C(=O)OCC(=O)NC2CCCCCC2)c1,-12,·,-8,·,·,2,-2,·,
Clc1ccc(C2[C@H]3CN(CC4CCCCC4)[C@H](c4ccccc4)C34CC2(c2cccnc2)C4)cn1 (stereo partly specified),17,i,-17,-12,-3,-11,-9,1,
CC(NC(=O)c1ccc2c(c1)OCO2)c1ccccc1 (stereo unspecified),-11,i,-15,21,3,2,2,-1,
